Mtb hypoxia rep: PubChem AID 1159583 | M. tuberculosis hypoxia-regulated fluorescent reporter, fluorescence | fluorescence inhibition, % (concentration not given with the values) | 300,000 tested, 0.1% active;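 active = 35 to 45% if threefold the growth effect, above 45% if 1.5-fold the growth effect; inactive = the rest, general growth blockers included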;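 also: wells of about 50 µL received 100 nL stock; 0% = vehicle wells and 100% = reference inhibitor wells; whole bacteria with a GFP reporter of the hypoxia response; strong numbers were not always called active; many hits fall short of the cut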
RN4220 kill: growth inhibition of S. aureus RN4220, primary screen, OD600 | 16 h | inhibition, % (no concentration beside the values) | 330,000 tested, 0.33% active;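 active = z-score of -3 or lower and OD600 up to 0.18 on both plates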;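 also: plate controls were untreated cells for no effect and reference antibiotic for full effect; stock transfer was 100 nL into about 80 µL; one replicate is shown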
ugtP null kill: growth inhibition of ugtP-null S. aureus, primary screen, RN4220 ugtP deletion, OD600. 330,000 tested, 0.54% active. growth inhibition, % (no concentration beside the values). 16 h; some inactives read as strong as hits;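 active = z-score under -3 and OD600 up to 0.15 on both plates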;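 also: plate controls were untreated wells for no effect and antibiotic for full effect; wells of about 80 µL received 100 nL stock; the first replicate is given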
BJeLR lethal: MLPCN primary cell-based screen for lethality selective to Ras in HRASV12 cells | BJeLR (HRASV12) viability, CellTiter-Glo ATP luminescence, 48 h; reference of the scale not given here | inhibition, % (concentration not given with the values) | 300,000 tested, 0.17% active;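 active = replicate mean above 50%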;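 also: 50 nL library stock added to about 25 µL; numbers are from one replicate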
Bead autofluor: flagged as autofluorescent in microsphere protease counterscreen; compound autofluorescence counterscreen, microsphere flow cytometry; stronger effect = higher value; fluorescence intensity (test concentration not listed); 360,000 tested, 3.1% active; AID 624483;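 active = at least 3 SD above the mean of all compounds, about 16000 in these data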;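 also: 100 nL of 1 mM stock went into each well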
PrP 5UTR inh: inhibition of PrP 5' UTR reporter expression | cell-based PrP 5' UTR mRNA reporter, plate reader | inhibition, % (concentration not given with the values) | 340,000 tested, 0.35% active | AID 488862, 2010;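 active = every replicate at 50% or more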;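 also: 0 = median of the neutral control wells; tested in H4 reporter cells; numbers are from one replicate; inactives centre near -14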
Mtb hypoxia rep growth: also measured in Mtb hypoxia rep; calls as there; growth inhibition, %; measured here: M. tuberculosis growth (absorbance);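 0% = vehicle and 100% = reference antibiotic; read after six days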
* = called active by the depositor; nt = no result given; & = joins results of further samples.

Below each compound – Mtb hypoxia rep | Mtb hypoxia rep growth | RN4220 kill | ugtP null kill | BJeLR lethal | Bead autofluor | PrP 5UTR inh
O=C1CC(c2ccc(O)cc2)Oc2cc(O)ccc21 (configuration not stated)
→ nt | nt | 2.6 | -5 | 11 | 4106 | 3
O=c1[nH]cc(O)c(=O)[nH]1
→ nt | nt | 1.8 | 1 | -9 | 6129 | -17
CC(=O)Nc1ccc(C(=O)NNC(=O)c2cc([N+](=O)[O-])cc([N+](=O)[O-])c2)cc1
→ -4 | 41 | 0.0 | 3 | 5 | 2657 | -23
Cc1sc2ncnc(OCC(=O)NC3CCS(=O)(=O)C3)c2c1C (configuration not stated)
→ 7 | -4 | 2.4 | 8 | 16 | 4848 | -16
Oc1ccc(/C=N/n2cc(-c3ccccc3)[nH]c2=S)cc1
→ nt | nt | nt | nt | -1 | 3354 | 17
CC(=O)Nc1ccc(C(=O)CSc2cc(C)c3cccc(C)c3n2)cc1
→ 6 | 4 | 5.4 | -7 | -3 | 10871 | -19
O=S(=O)(Nc1ccccc1N1CCOCC1)c1ccc(F)c(Cl)c1
→ 2 | -9 | 2.6 | -8 | 18 | 6230 | -13
Cc1noc(C)c1COc1ccccc1C(=O)N(C)Cc1ccco1
→ 9 | -1 | 2.7 | -1 | nt | 7934 | -16
COc1ccc(/C(N)=N/OC(=O)c2c(-c3ccccc3Cl)noc2C)cc1OC
→ 2 | 3 | 1.5 | 3 | 1 | 5825 | -24
OCc1cn(-c2ccccc2)nn1
→ 1 | 2 | 0.6 | -6 | 6 | 3574 | -17
Cc1cc(Cl)ccc1Oc1ncc(-c2ccc(Cl)cc2)cn1
→ nt | nt | -6.9 | 1 | 2 | 2533 | -12
OCCNc1nc(NCc2ccccc2)c2ccccc2n1
→ 2 | 1 | 3.2 | 12 | -3 | nt | -10
CCCCn1c(SCC(=O)OC)nc2c1c(=O)n(C)c(=O)n2C
→ 2 | 2 | 2.9 | 2 | -4 | 9587 | -25
COc1ccccc1NC(=O)C1CCCN(S(=O)(=O)c2cnc[nH]2)C1 (configuration not stated)
→ nt | nt | -1.0 | 1 | -5 | 5237 | -5
CS(=O)(=O)N1CCN(c2ccc(Cl)cc2[N+](=O)[O-])CC1
→ 1 | -11 | 2.0 | 5 | 6 | 2473 | -20
Cc1cc(C)n(C(=O)Cn2nc(C)c(Cl)c2C)n1
→ 7 | 1 | 1.3 | 8 | -3 | nt | -22
Cc1[nH]c2ccccc2c1SCC(=O)N1CCCCCC1
→ 1 | 6 | 2.5 | 3 | -5 | 4198 | -9
O=C(Nc1cccc(C(=O)N2CCN(c3ccc(F)cc3)CC2)c1)c1ccccc1
→ 13 | 5 | -2.4 | 9 | -3 | 2497 | -14
C=C(C)CSc1nc2c(c(=O)[nH]c(=O)n2C)n1Cc1ccccc1
→ 1 | 14 | -0.3 | 7 | 0 | 5152 | -9
CCOc1ccc(OCCC(=O)OCC(=O)NCc2ccccc2)cc1
→ 1 | -2 | 1.4 | 4 | 5 | 4143 | -5
CCOC(=O)c1c(NC(=O)/C=C/c2ccco2)sc(C)c1C
→ -4 | 6 | 2.7 | -2 | 9 | 9324 | -8
Cc1[nH]n(-c2ccccc2)c(=O)c1N=Nc1ccccc1C(=O)N1CCCCC1
→ 5 | -5 | 2.5 | 4 | 6 | 5142 | -13
CCNC(=S)N1C2CCC1CC(NC(=O)NC1CCCCC1)C2 (configuration not stated)
→ 2 | -4 | 6.1 | 13 | -2 | 7426 | -8
Cc1ccc(/C=c2\sc3n(c2=O)CN(c2ccc(Br)cc2)CN=3)o1
→ nt | nt | nt | nt | 0 | 4361 | -29
O=C(c1cccs1)n1nc(-c2ccccc2)nc1NCc1ccc(F)cc1
→ 9 | 9 | -11 | 1 | -3 | 25264* | -19
C[C@]12CCC(=O)C=C1CC[C@@H]1[C@@H]2[C@@H](O)C[C@@]2(C)[C@H]1CC[C@]2(O)C(=O)COC(=O)CCC(=O)O
→ nt | nt | nt | nt | -8&-6 | 6232&6380 | -12&-5
Cc1ccc(NC2OC(CO)C(O)C(O)C2O)cc1 (configuration not stated)
→ 3 | 4 | 3.6 | 1 | 4 | 7680 | -9
O=C1CC(NNc2ccccc2)C(=O)N1c1ccccc1 (configuration not stated)
→ nt | nt | nt | nt | 4 | 2547 | -15
CCc1ccc(NC2CC(=O)N(c3ccc(OC)cc3OC)C2=O)cc1 (configuration not stated)
→ -6 | 1 | -6.2 | -21 | nt | 12788 | -11
CC(=O)c1sc(NC(=O)C(C)C)nc1C
→ nt | nt | 2.3 | 8 | -2 | 2396 | -20
COc1cccc(CNS(=O)(=O)c2ccc(-n3cnnn3)c(C)c2)c1
→ 2 | -4 | 2.7 | 9 | -13 | 3554 | -11
CC(NO)C(=NO)c1cccs1 (configuration not stated)
→ 7 | 5 | 3.4 | 3 | nt | nt | nt
c1ccc(Cn2c(CSc3nnnn3-c3ccccc3)nc3ccccc32)cc1
→ 0 | -3 | 5.8 | -5 | -1 | 8319 | 5
O=C(CN(c1ccccc1F)S(=O)(=O)c1ccccc1)Nc1ccc2c(c1)OCCO2
→ 9 | 3 | 4.4 | 0 | 9 | 5873 | -7
CCc1ccccc1N1CC23C=CC(O2)C(C(=O)OCC(C)C)C3C1=O (configuration not stated)
→ nt | nt | 0.0 | -3 | -3 | 5371 | -21
O=C1CC(N2CCN(c3ccc(F)cc3)CC2)C(=O)N1Cc1cccs1 (configuration not stated)
→ nt | nt | 0.8 | -3 | 9 | 4300 | -19
COc1ccc(CCNC(=O)CCN2C(=O)COc3ccc(C)cc32)cc1OC
→ -21 | -9 | -0.5 | -5 | -5 | 15592 | -20
CC(C)c1ccc(C=NN2CCCCC2)cc1
→ 5 | 12 | 8.5 | 10 | nt | nt | nt
O=C(CSc1ccc2ccccc2c1Br)Nc1cccc(S(=O)(=O)NC2=NCCCCC2)c1
→ -1 | 4 | -2.1 | -16 | 3 | 2492 | -35
Cc1ccc(C(=O)NCC(=O)Nc2ccncc2)cc1
→ -4 | -2 | 5.6 | -4 | -4 | 5834 | -9
Cc1cc(C)n2nc(SCC(=O)N/N=C/c3ccccn3)nc2n1
→ nt | nt | nt | nt | -7 | 2323 | -18
C=C(C)C1CCC2(C(=O)O)CCC3(C)C(CCC4C5(C)C(C=O)C(O)C(C)(C)C5CCC43C)C12 (configuration not stated)
→ nt | nt | 27 | 22 | 0 | 4996 | -19
COc1ccc(OC)c(/C=c2\sc3nc(-c4cccs4)nn3c2=O)c1
→ nt | nt | nt | nt | -3 | 8314 | -28
CCOc1cccc(/C=N/NC(=O)C2CCCC2)c1O
→ nt | nt | nt | nt | 4 | 5974 | -6
O=C(COC(=O)C12CC3CC(CC(C3)C1)C2)Nc1ccc([N+](=O)[O-])cc1Cl
→ 1 | 10 | 1.8 | -1 | 13 | 2729 | -13
O=C(NCc1ccc(F)c(F)c1)C1CCC(=O)N(CCc2ccccc2)C1 (configuration not stated)
→ 8 | 11 | 2.0 | 2 | 2 | 6316 | -8
COc1ccc(OCc2nnc(SCC(=O)NC3CCCCC3)o2)cc1
→ 0 | 14 | -2.1 | 4 | -5 | 3940 | 10
CCOc1ccc(NC(=O)Cn2nnc(C(=O)NCc3ccco3)c2N)cc1
→ 8 | -3 | 2.4 | 2 | -3 | 2833 | -24
C1=C(c2ccccc2)Nc2ncnn2C1c1ccccc1 (configuration not stated)
→ nt | nt | nt | nt | 0 | 4287 | -22
Cc1ccccc1S(=O)(=O)NC1=NCCCCC1
→ 4 | 2 | -4.6 | -2 | 4 | 2077 | -14
O=C(CCC(=O)N(CC(=O)NC1CCCCC1)Cc1cccs1)Nc1ccccn1
→ 9 | 2 | 4.5 | 5 | 0 | 4687 | -14
CCC(=O)N1c2ccc(S(=O)(=O)CCC(=O)NC3CCCC3)cc2CC1C (configuration not stated)
→ nt | nt | 3.6 | 5 | 1 | 5788 | -27
COc1cc(OC)cc(-c2nnc(NC(=O)CCS(=O)(=O)c3ccccc3)o2)c1
→ 13 | 10 | 3.5 | 8 | -16 | 4211 | -8
CCC(C)C(=O)Nc1nc(C)c(-c2csc(Nc3cc(OC)ccc3OC)n2)s1 (configuration not stated)
→ 8 | 16 | -12 | -6 | 0 | 3846 | -11
COC(=O)c1c(NC(=O)COC(=O)Cn2cnc3ccccc32)sc2c1CCCC2
→ 2 | 7 | 1.8 | -1 | -13 | 2144 | -12
O=C(O)Cc1ccc(-c2ccccc2-c2ccccc2)cc1
→ nt | nt | 19 | 2 | -2 | 3720 | -30
COc1ccc(-c2cn3nc(SCC(=O)NCC4CCCO4)ccc3n2)cc1 (configuration not stated)
→ -4 | -4 | 1.6 | 3 | 0 | 5670 | -17
Cc1ccccc1C(=O)NCCCNC(=O)c1cnccn1
→ 9 | -5 | 3.5 | -3 | -2 | 3280 | -20
O=C(Cc1ccccn1)c1ccncc1
→ 8 | 3 | 2.2 | 2 | nt | 2921 | 9
CC(C)Oc1ccc(CCc2n[nH]c(=S)n2-c2ccccc2)cc1
→ 9 | 6 | -0.4 | 2 | -2 | 5043 | -12

Of the compounds above, these contain a furan ring, fused or not:
Below each compound – Mtb hypoxia rep | Mtb hypoxia rep growth | RN4220 kill | ugtP null kill | BJeLR lethal | Bead autofluor | PrP 5UTR inh
Cc1noc(C)c1COc1ccccc1C(=O)N(C)Cc1ccco1
→ 9 | -1 | 2.7 | -1 | nt | 7934 | -16
CCOC(=O)c1c(NC(=O)/C=C/c2ccco2)sc(C)c1C
→ -4 | 6 | 2.7 | -2 | 9 | 9324 | -8
Cc1ccc(/C=c2\sc3n(c2=O)CN(c2ccc(Br)cc2)CN=3)o1
→ nt | nt | nt | nt | 0 | 4361 | -29
CCOc1ccc(NC(=O)Cn2nnc(C(=O)NCc3ccco3)c2N)cc1
→ 8 | -3 | 2.4 | 2 | -3 | 2833 | -24

Remaining list, next part:
Below each compound – Mtb hypoxia rep | Mtb hypoxia rep growth | RN4220 kill | ugtP null kill | BJeLR lethal | Bead autofluor | PrP 5UTR inh
N=C1S/C(=C\c2ccc(-c3ccccc3C(=O)O)o2)C(=O)N1c1ccc2c(c1)OCO2
→ 4 | 2 | 6.0 | 3 | -1 | 4792 | -29
Cc1ccc(Oc2ccc(-c3nc(N)nc(N)n3)cc2)cc1C
→ -4 | 4 | 2.2 | 67 | -2 | 13075 | -7
Cc1cc(C)cc(N2C(=O)/C(=C\c3ccc(N4CCN(C)CC4)o3)C(=O)NC2=S)c1
→ 19 | 5 | 3.3 | 2 | 8 | 5629 | nt
Cc1nc2ccccc2c2oc(C(=O)NCCCN3CCC(C)CC3)cc12
→ -4 | 0 | 18 | 16 | 7 | 6789 | 8
COc1cc(C#Cc2ccc3cc(C(C)(C)O)oc(=O)c3c2)cc(OC)c1
→ 4 | 4 | 1.7 | -7 | nt | 3135 | -41
CC(C)OCCCNC(=O)CCC(=O)NNc1nc2ccccc2c2nc(-c3ccccc3)nn12
→ -4 | -2 | 5.6 | 0 | -2 | 1933 | -16
O=C(NC1CCCCC1)C(c1ccc(F)cc1)N(Cc1ccco1)C(=O)c1ccccn1 (configuration not stated)
→ 1 | 3 | 2.0 | 0 | 2 | 3435 | -4
COC(=O)C1CCc2c(ccc3c2CCCC3)C1=O (configuration not stated)
→ 13 | 13 | 13 | 16 | nt | 3111 | -133
Nc1nc(SCC(=O)NCCC(c2ccccc2)c2ccccc2)n[nH]1
→ nt | nt | -4.7 | 1 | 1 | 2427 | -32
CCN1CCN(CCc2nc3cc([N+](=O)[O-])ccc3n2C)CC1
→ 11 | 9 | 2.2 | 9 | 0 | 4759 | -21
COc1ccccc1CNC(=O)COc1ccc(Br)c(C)c1
→ 21 | 5 | 3.2 | 17 | -6 | 4011 | -21
Cc1ccc(C(=O)Nc2nnc(S(=O)(=O)N3CCN(c4ccc(F)cc4)CC3)s2)cc1
→ -3 | -2 | 6.7 | 1 | -11 | 4189 | 1
Cc1onc(-c2ccccc2)c1C(=O)Nc1nnc(N(C)Cc2ccccc2)s1
→ nt | nt | 4.1 | 6 | -3 | 5630 | 4
COc1cc(C=NNc2ccc(S(=O)(=O)Nc3ccccc3C(=O)O)cc2[N+](=O)[O-])ccc1O
→ 22 | 16 | -3.3 | 9 | nt | 3990 | -10

Assay outcomes as filed in PubChem.

Random draw from the library, and some 4.1% of all compounds hit somewhere here.
